Screening results as filed in PubChem BioAssay.
Ba CapD inh – Bacillus anthracis CapD inhibitors, primary screen, biochemical, fluorescence intensity. CapD gamma-glutamyltranspeptidase (Bacillus anthracis Ames Ancestor). purified CapD enzyme, fluorescence intensity read-out; hits give low values; some hits fall short of the stated cut. z-score (test concentration not listed). hit rate 0.23% among 140,000;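 active = z-score under -4 in either of two replicates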;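 also: stock transfer was 100 nL into about 40 µL; score is relative to mean and spread of the plate; one replicate is shown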
AID504770 – growth inhibition of E. coli YBA685, primary screen, V. cholerae RctB inhibitors; E. coli YBA685 rctB-dependent plasmid, OD600 growth, 3 h; hits give low values; z-score (concentration not given with the values); hit rate 0.27% among 130,000;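 active = z-score under -2 on both plates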;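 also: wells of about 30 µL received 100 nL stock; score is relative to mean and SD of the test wells; the first replicate is given; strong numbers were not always called active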
Numbers without * were called inactive. Some of the compounds tested (hit frequency here may not be typical).

Results for Cc1[nH]n(-c2ccccc2)c(=O)c1C(c1cccc([N+](=O)[O-])c1)c1c(C)[nH]n(-c2ccccc2)c1=O ?
Ba CapD inh: -0.385

Results for CCCS(=O)(=O)NCCc1csc(-c2cccc(C)c2)n1 ?
AID504770: -0.25

How did CCN(CC)S(=O)(=O)c1ccc(C(=O)Nc2sccc2C#N)cc1 do in these assays?
Ba CapD inh: -0.06; AID504770: 0.4

Results for NNC(=O)Cc1csc(-c2ccccc2)n1 ?
Ba CapD inh: 0.48

What do the screens show for `COC(=O)/C(=C\c1cccnc1)N(C)C(=O)c1ccc(F)cc1`?
AID504770: -1

Results for O=C(O)CNC(=O)CC12CC3CC(CC(C3)C1)C2 ?
Ba CapD inh: 0.005; AID504770: -0.75

How did COc1cc(/C=C/C(=O)O)ccc1Cc1ccc(C(=O)O)o1 do in these assays?
AID504770: 2

Results for N/C(=N\S(=O)(=O)c1cc(C(F)(F)F)cc(C(F)(F)F)c1)c1ccccc1 ?
Ba CapD inh: -0.275

What do the screens show for `COc1cc(C2C(C(=O)N3CCCCC3)=C(C)NC3=C2C(=O)CC(C)(C)C3)cc([N+](=O)[O-])c1O` (centres undefined)?
Ba CapD inh: -0.525

What do the screens show for `CCOC(=O)c1cnc(-c2cccs2)[nH]c1=O`?
Ba CapD inh: 0.995; AID504770: 1.75

Results for C=CCSc1sc(C(=O)OCC)c2c1C(=O)CCC2 ?
Ba CapD inh: -0.335

What do the screens show for `C=CCN(CC=C)CC(O)Cn1c(-c2ccccc2)c(-c2ccccc2)c2cc(C)ccc21` (centres undefined)?
Ba CapD inh: 6.5

Results for CNC(=O)CSc1nnc(-c2ccccc2F)n1C1CCCCC1 ?
AID504770: 2.3

How did Cc1nc(-c2cc(C#N)c(NCc3ccccc3)nc2C)cs1 do in these assays?
Ba CapD inh: 3.27; AID504770: -0.35

What do the screens show for `O=C1Nc2ccccc2/C1=N\N=C1/SCC(=O)N1c1ccc(O)cc1`?
Ba CapD inh: -0.73; AID504770: -0.25

Continued, starting with the last 2 of the part before.
How did Cc1nc(-c2cc(C#N)c(NCc3ccccc3)nc2C)cs1 do in these assays?
Ba CapD inh: 3.27; AID504770: -0.35

What do the screens show for `O=C1Nc2ccccc2/C1=N\N=C1/SCC(=O)N1c1ccc(O)cc1`?
Ba CapD inh: -0.73; AID504770: -0.25

How did CCOc1cc(N2CCOCC2)c(OCC)cc1NC(C)=O do in these assays?
Ba CapD inh: 0.12; AID504770: -0.8

What do the screens show for `Cc1ccc(CSc2nc3ccc(C(=O)NCCN4CCOCC4)cc3n2C)cc1`?
Ba CapD inh: -1.02; AID504770: 1.3

What do the screens show for `O=c1[nH]c2ccccc2n1CCOc1ccccc1`?
Ba CapD inh: 1.27; AID504770: -0.8

What do the screens show for `COc1cc(OC)nc(/N=C/N(C)C)n1`?
Ba CapD inh: 0.005; AID504770: 1.2

How did CCC(C)NC(=O)c1cc(C(C)C)on1 (centres undefined) do in these assays?
Ba CapD inh: -1; AID504770: -1.1

What do the screens show for `O=C(O)CSCC(=O)Nc1ccc(-c2nc3ccccc3s2)cc1`?
Ba CapD inh: 82; AID504770: 0.65

What do the screens show for `CCOC(=O)C1C(=O)C=C(Nc2ccc(C(F)(F)F)cc2)CC1c1ccccc1` (centres undefined)?
Ba CapD inh: 11.9; AID504770: 0.4

How did Cc1ccc2cc3cc(C(=O)NCCCN4CCc5ccccc5C4)oc3nc2c1 do in these assays?
Ba CapD inh: 33; AID504770: 0.2

How did CCOc1ccc(/C=C2/SC(=Nc3ccccc3)NC2=O)c(OCC)c1 do in these assays?
Ba CapD inh: -0.17

How did O=C(Nc1ccc(Cl)c(Cl)c1)OCc1cccnc1 do in these assays?
AID504770: -0.15

Results for O=C(CSc1nnc(COc2ccccc2)o1)Nc1ccccc1 ?
Ba CapD inh: -0.115; AID504770: 1.85

How did Cc1ccc(C(=O)NCc2ccc3[nH]c4c(c3c2)CCCC4)cc1C do in these assays?
Ba CapD inh: 69.5; AID504770: -0.15

Results for CCc1ccccc1NC(=O)CSc1nc2ccccc2c(=O)n1CCC(=O)N1CCN(c2ccccc2)CC1 ?
Ba CapD inh: -1.42

What do the screens show for `Cc1ccccc1-n1c(C)[n+](C)c2ccccc21`?
Ba CapD inh: -0.085; AID504770: 1.4

How did Nc1[nH]c(=O)[nH]c(=O)c1N=Nc1ccccc1Cl do in these assays?
AID504770: -0.85

14 structures already listed, ordered by number of heavy atoms, smallest number first.
How did CCC(C)NC(=O)c1cc(C(C)C)on1 (centres undefined) do in these assays?
Ba CapD inh: -1; AID504770: -1.1

Results for NNC(=O)Cc1csc(-c2ccccc2)n1 ?
Ba CapD inh: 0.48

What do the screens show for `CCOC(=O)c1cnc(-c2cccs2)[nH]c1=O`?
Ba CapD inh: 0.995; AID504770: 1.75

What do the screens show for `Cc1ccccc1-n1c(C)[n+](C)c2ccccc21`?
Ba CapD inh: -0.085; AID504770: 1.4

How did O=C(Nc1ccc(Cl)c(Cl)c1)OCc1cccnc1 do in these assays?
AID504770: -0.15

How did CCOc1cc(N2CCOCC2)c(OCC)cc1NC(C)=O do in these assays?
Ba CapD inh: 0.12; AID504770: -0.8

What do the screens show for `COC(=O)/C(=C\c1cccnc1)N(C)C(=O)c1ccc(F)cc1`?
AID504770: -1

Results for CNC(=O)CSc1nnc(-c2ccccc2F)n1C1CCCCC1 ?
AID504770: 2.3

What do the screens show for `O=C1Nc2ccccc2/C1=N\N=C1/SCC(=O)N1c1ccc(O)cc1`?
Ba CapD inh: -0.73; AID504770: -0.25

Results for N/C(=N\S(=O)(=O)c1cc(C(F)(F)F)cc(C(F)(F)F)c1)c1ccccc1 ?
Ba CapD inh: -0.275

What do the screens show for `CCOC(=O)C1C(=O)C=C(Nc2ccc(C(F)(F)F)cc2)CC1c1ccccc1` (centres undefined)?
Ba CapD inh: 11.9; AID504770: 0.4

What do the screens show for `C=CCN(CC=C)CC(O)Cn1c(-c2ccccc2)c(-c2ccccc2)c2cc(C)ccc21` (centres undefined)?
Ba CapD inh: 6.5

What do the screens show for `COc1cc(C2C(C(=O)N3CCCCC3)=C(C)NC3=C2C(=O)CC(C)(C)C3)cc([N+](=O)[O-])c1O` (centres undefined)?
Ba CapD inh: -0.525

Results for CCc1ccccc1NC(=O)CSc1nc2ccccc2c(=O)n1CCC(=O)N1CCN(c2ccccc2)CC1 ?
Ba CapD inh: -1.42

(continued)
What do the screens show for `N#CC1=C(N)n2c(s/c(=C\c3ccco3)c2=O)=C(C#N)C1c1ccco1` (centres undefined)?
Ba CapD inh: -1.5; AID504770: 0.95

How did COC(=O)/C(=C/C=C/c1ccccc1)NC(=O)c1ccccc1 do in these assays?
Ba CapD inh: -1.17; AID504770: 1.15

Results for CCc1ccc(NC(=O)C2CCCN(S(=O)(=O)N3CCOCC3)C2)cc1 (centres undefined) ?
Ba CapD inh: -0.31; AID504770: 1

Results for O=C1/C(=C/c2ccc(-c3ccc(Br)cc3)o2)C=C(c2ccccc2)N1c1cccnc1 ?
Ba CapD inh: 3.92

What do the screens show for `COc1ccc(Br)cc1CNC(C)(C)CO`?
Ba CapD inh: -0.075; AID504770: -0.2

What do the screens show for `O=C1CCC(=O)N1CNc1cc(Cl)c(Cl)cc1Cl`?
Ba CapD inh: -1.12
